# Assay outcomes: PubChem, Broad Institute
# Vaccinia stage – Vaccinia orthopox stage-specific inhibition; AID 1053133; activity change (mCherry), % (concentration not given with the values); 89,000 compounds, 0.01% hits; Vaccinia-infected cells, mCherry/Venus stage reporter fluorescence; stronger effect = lower value; some inactives read as strong as hits;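 active = mCherry past -33% and 40 or more points under the early reporter, replicates agreeing; inconclusive = past -33% without that gap or agreement; tested in A549 cells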;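 also: scaled between vehicle wells and reference inhibitor wells; 23 nL library stock went into each well; one replicate is shown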
# Vaccinia stage Venus – also measured in Vaccinia stage; calls as there; activity change (Venus), %; measured here: Venus reporter, other viral stage;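 negative = less Venus signal; first of two replicates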
# The depositor's hits bear a star; ? = inconclusive; nt = no result given; & = joins results of further samples.
SMILES,Vaccinia stage,Vaccinia stage Venus
COCC(=O)N1CC2(C1)CN(C(=O)COC)[C@@H](CO)c1c2c2ccc(OC)cc2n1C,16.5,1.9
O=C(C[C@@H]1CC[C@H](NC(=O)C2CCOCC2)[C@H](CO)O1)Nc1ccccc1,8.8,1.4
CN1C(=O)c2cc(NC(=O)NCc3ccccc3)ccc2OC[C@H]2O[C@@H](CC(=O)NCC3CCCCC3)CC[C@@H]21,-9.2,-9.0
O=C(C[C@@H]1CC[C@H]2[C@@H](COC[C@@H](O)CN2C(=O)c2cccnc2)O1)Nc1ccc(-c2ccccc2)cc1,-33.8,-23.2
O=C(NCC[C@H]1CC[C@H](NC(=O)c2ccc3c(c2)OCO3)[C@@H](CO)O1)Nc1ccc(Cl)cc1,-13.3,-7.5
Cc1noc(C)c1NC(=O)N(C)C[C@@H]1Oc2ccc(NS(=O)(=O)c3c(C)noc3C)cc2CC(=O)N([C@@H](C)CO)C[C@H]1C,-10.4,0.4
Cc1ccccc1-c1ccc2c(c1)O[C@@H](CN(C)C(=O)Nc1ccc(F)cc1)[C@@H](C)CN([C@H](C)CO)S2(=O)=O,?,nt
O=C(C[C@@H]1CC[C@@H]2[C@H](COC[C@@H](O)CN2C(=O)C2CC2)O1)NCc1ccccc1Cl,7.2,1.4
O=C(C1CCCC1)N1CC2(C1)[C@H](c1ccccc1)[C@@H](CO)N2Cc1nccs1,6.7,1.9
O=C(NC1CCCC1)N1CC(=O)N2[C@H](C1)[C@H](c1ccc(-c3ccc(F)cc3)cc1)[C@@H]2CO,-23.3,-19.8
COc1ccc(NC(=O)N2[C@@H]3CNC[C@H]2C3c2ccc(-c3ccccc3)cc2)cc1 (stereo partly drawn),-8.7&-9.4,-2.0&-10.6
COc1ccc(S(=O)(=O)N[C@H]2C=C[C@@H](CC(=O)N3CCC(Cc4ccccc4)CC3)O[C@@H]2CO)cc1,-31.3,-21.1
C[C@@H]1CCCCO[C@@H](CN(C)C(=O)c2ccncc2)[C@H](C)CN([C@@H](C)CO)C(=O)c2cc(NS(=O)(=O)c3cn(C)cn3)ccc2O1,21.2,12.7
CN(C)CC#Cc1ccc([C@@H]2[C@@H](CO)N3C(=O)CN(C(=O)c4cccc(F)c4)C[C@@H]23)cc1,4.4,3.1
C[C@H](CO)N1C[C@H](C)[C@H](CN(C)C(=O)NC2CCCC2)Oc2ncc(Br)cc2C1=O,16.6&11.9,11.1&5.0
C[C@@H]1CCCCO[C@@H](CN(C)Cc2ccncc2)[C@@H](C)CN([C@@H](C)CO)C(=O)c2cc(NC(=O)CCC(F)(F)F)ccc2O1,-5.6,8.5
COc1ccc(S(=O)(=O)Nc2ccc3c(c2)CC(=O)N([C@H](C)CO)C[C@@H](C)[C@H](CN(C)S(=O)(=O)c2c(C)noc2C)O3)cc1,15.1,8.3
CCCNC(=O)N1C[C@H](O)COC[C@@H]2O[C@@H](CC(=O)N[C@@H]3CCN(Cc4ccccc4)C3)CC[C@H]21,13.0,18.1
O=C(NCc1ccc(F)cc1)[C@H]1[C@H](CO)[C@H]2Cn3c(cccc3=O)[C@@H]1N2CC1CCCC1,12.9,4.7
C[C@H](CO)N1C[C@H](C)[C@@H](CN(C)C(=O)Cc2ccccc2)OCCCC[C@H](C)Oc2ccc(NC(=O)Nc3cccc4ccccc34)cc2C1=O,19.6,18.9
CNC[C@H]1Oc2ccc(NC(=O)Nc3ccc(F)cc3)cc2C(=O)N([C@@H](C)CO)C[C@H]1C,23.6,16.6
Cc1noc(C)c1NC(=O)Nc1ccc2c(c1)C(=O)N([C@H](C)CO)C[C@@H](C)[C@H](CN(C)Cc1ccccc1)OCCCC[C@@H](C)O2,8.7,-0.2
Cc1cccc(-c2ccc([C@H]3[C@H]4CN(S(=O)(=O)c5ccccc5C)CCCCN4[C@H]3CO)cc2)c1,14.2,4.3
CCC(=O)N[C@@H]1CC[C@H](CC(=O)NCc2ccccc2F)O[C@H]1CO,1.9,1.8
C[C@H]1CCCCO[C@@H](CN(C)C(=O)Nc2ccc(F)cc2)[C@@H](C)CN([C@@H](C)CO)C(=O)c2cc(NC(=O)Nc3ccccc3)ccc2O1,3.7,7.5
CCCC#Cc1ccc2c(c1)O[C@@H](CN(C)C(=O)c1ccccc1F)[C@H](C)CN([C@@H](C)CO)S2(=O)=O,?,nt
O=C(C[C@@H]1C[C@H]2c3cc(NC(=O)Cc4ccncc4)ccc3O[C@H]2[C@@H](CO)O1)NCC1CC1,6.3,5.2
CCC(=O)N(CC)C[C@@H]1[C@@H](c2ccc(-c3ccccc3)cc2)[C@@H](CO)N1C(C)=O,6.9,8.3
N#C[C@H]1N[C@H](CO)[C@H]1c1ccc(C#CC2CCCCC2)cc1,9.1,6.7
CCC(=O)N(C)C[C@H]1Oc2ncc(-c3ccc(C(=O)N(C)C)cc3)cc2C(=O)N([C@@H](C)CO)C[C@H]1C,1.9,7.9
CCCNC(=O)[C@H]1[C@H](CO)[C@H]2Cn3c(ccc(-c4ccccc4F)c3=O)[C@@H]1N2CC1CC1,6.8,10.2
O=C(C[C@H]1C[C@@H]2c3cc(NC(=O)Nc4ccccc4F)ccc3O[C@@H]2[C@@H](CO)O1)NCc1ccc2c(c1)OCO2,-23.9,-21.9
CN1[C@@H]2Cn3c(ccc(-c4ccncc4)c3=O)[C@H]1[C@@H](C(=O)NC1CCCCC1)[C@@H]2CO,4.2,13.6
CCCNC(=O)N(C)C[C@@H]1Oc2cc(-c3cncnc3)ccc2S(=O)(=O)N([C@H](C)CO)C[C@@H]1C,26.2,8.4
C[C@@H]1CN([C@H](C)CO)C(=O)c2cc(NC(=O)Cc3ccccc3)ccc2O[C@@H](C)CCCCO[C@@H]1CN(C)C(=O)c1ccncc1,22.3,7.2
Cc1ccc(S(=O)(=O)N(C)C[C@@H]2Oc3ccc(NS(=O)(=O)c4c(C)noc4C)cc3C(=O)N([C@@H](C)CO)C[C@@H]2C)cc1,18.0,20.0
CCC(=O)Nc1ccc2c(c1)OC[C@H](C)N(C(=O)C1CCC1)C[C@H](C)[C@@H](OC)CN(C)C2=O,2.5,2.3
CCCN1C[C@H](C)[C@@H](OC)CN(C)C(=O)c2ccc(NC(=O)c3ccccc3F)cc2OC[C@@H]1C,13.3,2.5
CNC[C@H]1Oc2ccc(NS(=O)(=O)c3c(C)noc3C)cc2CC(=O)N([C@H](C)CO)C[C@@H]1C,4.8,4.9
Cc1ccc(S(=O)(=O)Nc2ccc3c(c2)CC(=O)N([C@H](C)CO)C[C@H](C)[C@H](CN(C)CC2CCCCC2)O3)cc1,?,nt

# The closing 2 compounds of the part above open the next one.
SMILES,Vaccinia stage,Vaccinia stage Venus
CNC[C@H]1Oc2ccc(NS(=O)(=O)c3c(C)noc3C)cc2CC(=O)N([C@H](C)CO)C[C@@H]1C,4.8,4.9
Cc1ccc(S(=O)(=O)Nc2ccc3c(c2)CC(=O)N([C@H](C)CO)C[C@H](C)[C@H](CN(C)CC2CCCCC2)O3)cc1,?,nt
CCC(=O)N1C[C@H](C)[C@H](OC)CN(C)C(=O)c2cc(NC(=O)NC(C)C)ccc2OC[C@@H]1C,-1.8,4.0
C[C@@H]1CN([C@H](C)CO)C(=O)CCCn2cc(nn2)CO[C@H]1CN(C)C(=O)CCC(F)(F)F,5.1,7.3
C[C@H](CO)N1C[C@H](C)[C@@H](CN(C)C)Oc2cc(-c3ccncc3)ccc2S1(=O)=O,9.4,-1.8
CO[C@H]1CN(C)C(=O)c2cc(NC(C)=O)ccc2OC[C@H](C)N(C(=O)Cc2cccnc2)C[C@H]1C,5.3,-0.5
CCC(=O)N[C@H]1C=C[C@H](CC(=O)NCc2ccc(OC)cc2)O[C@H]1CO,-8.9,-5.3
N#C[C@@H]1[C@@H](c2ccccc2)[C@@H](CO)N1S(=O)(=O)c1cccc(F)c1,2.2,-3.8
CCCN(C)C[C@@H]1Oc2ncc(-c3ccccc3OC)cc2C(=O)N([C@H](C)CO)C[C@@H]1C,-11.6,-10.7
C[C@H](CO)N1C[C@H](C)[C@H](CN(C)C(=O)CC2CC2)Oc2cc(-c3ccccc3)ccc2S1(=O)=O,-3.1,-9.6
CCCNC(=O)C[C@@H]1C[C@H]2c3cc(NC(=O)C4CCOCC4)ccc3O[C@H]2[C@@H](CO)O1,6.1,5.5
CCCN(C)C[C@H]1OCCCC[C@@H](C)Oc2ccc(NC(=O)Nc3ccc(OC)cc3)cc2C(=O)N([C@H](C)CO)C[C@@H]1C,0.8,1.6
CC=Cc1ccc2n(c1=O)C[C@@H]1[C@@H](CO)[C@H](C(=O)NCc3ccc(F)cc3)[C@H]2N1CC (mixture of isomers),-0.2,-2.4
Cc1noc(C)c1NC(=O)N(C)C[C@@H]1Oc2ccc(NC(=O)Nc3ccccc3)cc2C(=O)N([C@H](C)CO)C[C@@H]1C,13.0,12.6
O=C(C[C@H]1CC[C@@H](NC(=O)c2ccncc2)[C@@H](CO)O1)Nc1ccc(-c2ccccc2)cc1,-15.8,-10.5
CC(C)NC(=O)N(C)C[C@@H]1OCCCC[C@H](C)Oc2ccc(N(C)C)cc2C(=O)N([C@@H](C)CO)C[C@@H]1C,19.5,11.3
CO[C@H](CN(C)Cc1nccs1)[C@H](C)CN([C@@H](C)CO)S(=O)(=O)c1ccc(C)cc1,5.3,0.2
C[C@@H]1CN([C@H](C)CO)S(=O)(=O)c2ccc(/C=C/c3ccccc3)cc2O[C@@H]1CN(C)CC1CC1,?,nt
C[C@H](O)C#Cc1ccc2c(c1)O[C@@H](CN(C)C(=O)Nc1ccccc1)[C@@H](C)CN([C@@H](C)CO)S2(=O)=O,-1.3,-8.7
C[C@@H]1CN([C@H](C)CO)C(=O)c2cc(/C=C/c3ccccc3)cnc2O[C@H]1CN(C)Cc1ccccc1,?,nt
C[C@H](CO)N1C[C@H](C)[C@@H](CN(C)C(=O)Nc2ccc(C(F)(F)F)cc2)OCCCC[C@H](C)Oc2ccc(NS(=O)(=O)c3ccccc3)cc2C1=O,-2.1,-15.9
CC(C)NC(=O)N(C)C[C@H]1OCCCC[C@@H](C)Oc2ccc(NC(=O)Nc3ccc(F)cc3)cc2C(=O)N([C@H](C)CO)C[C@@H]1C,3.8,6.2
COCC(=O)Nc1ccc2c(c1)C(=O)N(C)C[C@@H](OC)[C@H](C)CN(Cc1ccncc1)[C@@H](C)CO2,6.1,7.5
C[C@@H]1CN([C@H](C)CO)C(=O)c2cccc(NC(=O)c3ccncc3)c2O[C@@H]1CN(C)S(=O)(=O)c1cccs1,-16.4,-3.8
C#CCNC(=O)C1=C[C@H](c2ccc(C#C)cc2)C[C@H](OCCCCO)O1,12.2,18.1
Cn1cnc(S(=O)(=O)N2CCCCN3[C@H](CO)[C@@H](c4ccc(-c5ccc(F)cc5)cc4)[C@H]3C2)c1,-8.2,-9.0
C[C@H](CO)N1C[C@H](C)[C@H](CN(C)C(=O)Nc2ccccc2)OCCCC[C@H](C)Oc2ccc(NC(=O)CCC(F)(F)F)cc2C1=O,0.3,4.9
COc1ccc(S(=O)(=O)N(C)C[C@H]2Oc3ccc(NC(=O)CCC(F)(F)F)cc3C(=O)N([C@H](C)CO)C[C@@H]2C)cc1,4.5,4.9
COc1ccc(S(=O)(=O)Nc2ccc3c(c2)C(=O)N([C@H](C)CO)C[C@@H](C)[C@H](CN(C)S(=O)(=O)c2ccc(C)cc2)OCCCC[C@@H](C)O3)cc1,?,nt
C[C@H](NC(=O)N(C)C[C@H]1OCc2ccccc2-c2c(n(C)c3ccccc23)C(=O)N([C@H](C)CO)C[C@@H]1C)c1ccccc1,16.3,3.2
CN(C)C(=O)c1ccc(-c2ccc([C@@H]3[C@@H](CO)N4CCCCN(Cc5cncnc5)C[C@@H]34)cc2)cc1,9.9,7.6
CO[C@@H]1CN(C)C(=O)c2ccc(NC(=O)Nc3cc(F)ccc3F)cc2OC[C@H](C)N(C(=O)c2ccccn2)C[C@H]1C,7.4,2.2
CC(C)NC(=O)Nc1ccc2c(c1)CC(=O)N([C@H](C)CO)C[C@@H](C)[C@H](CN(C)Cc1ccc(-c3ccccc3)cc1)O2,-29.6,-16.9
C[C@@H]1CN([C@@H](C)CO)C(=O)c2cc(C3=CCCC3)cnc2O[C@@H]1CN(C)C(=O)Nc1cccc(F)c1,-15.9,-11.8
COc1cccc(C(=O)Nc2ccc3c(c2)C(=O)N(C)C[C@@H](OC)[C@H](C)CN(C(=O)C2CCCCC2)[C@H](C)CO3)c1,-29.9,-22.5
CCNC(=O)[C@@H]1[C@@H](CO)[C@@H]2Cn3c(ccc(C4=CCCCC4)c3=O)[C@@H]2N1Cc1ccccc1,1.9,11.3
COC(=O)C[C@@H]1C[C@@H]2c3cc(NC(=O)Cc4ccncc4)ccc3O[C@@H]2[C@H](CO)O1,8.6,6.0
CC(C)NC(=O)Nc1ccc2c(c1)C(=O)N([C@H](C)CO)C[C@H](C)[C@@H](CN(C)Cc1ccc(C(F)(F)F)cc1)O2,-8.6,-13.9
C[C@@H]1CN([C@@H](C)CO)C(=O)c2cc(NC(=O)Nc3ccc(C(F)(F)F)cc3)ccc2O[C@@H](C)CCCCO[C@@H]1CN(C)C(=O)C1CCCCC1,-11.8,-2.2
O=C(C[C@H]1CC[C@H](NC(=O)Nc2ccc(F)cc2)[C@H](CO)O1)NCc1ccccn1,15.3,11.6
Cc1cc(C(=O)Nc2cccc3c2O[C@H](CN(C)Cc2ccc4c(c2)OCO4)[C@@H](C)CN([C@@H](C)CO)C3=O)n(C)n1,-2.9,-3.9

# Another view of part of the listing above.
> O=C(C[C@H]1CC[C@@H](NC(=O)c2ccncc2)[C@@H](CO)O1)Nc1ccc(-c2ccccc2)cc1
- Vaccinia stage: -15.8
- Vaccinia stage Venus: -10.5
> CC(C)NC(=O)N(C)C[C@@H]1OCCCC[C@H](C)Oc2ccc(N(C)C)cc2C(=O)N([C@@H](C)CO)C[C@@H]1C
- Vaccinia stage: 19.5
- Vaccinia stage Venus: 11.3
> CO[C@H](CN(C)Cc1nccs1)[C@H](C)CN([C@@H](C)CO)S(=O)(=O)c1ccc(C)cc1
- Vaccinia stage: 5.3
- Vaccinia stage Venus: 0.2

# These rows are one share of the data; the hit share may differ from the screen's.
